High-throughput results deposited in PubChem BioAssay by several laboratories.
eIF4H inh: inhibitors of RNA binding by human eIF4H; eIF4H fluorescence polarization binding assay; Q15056; 290,000 tested, 0.94% active; AID 2012; inhibition, % at 35 µM;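 active = 50% or more with normal probe brightness, or confirmed in later tests; about a fifth of its hits are not listed in these tables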;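 also: calls also rest on retests at 20 µM and on dose response follow-up; 0% = protein and probe with vehicle and 100% = probe without protein; strong numbers were not always called active; many hits fall short of the cut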
Rce1 inh: blocks yeast Ras-converting enzyme; Q03530; yeast membranes, quenched prenylated peptide cleavage fluorescence; calls only; 290,000 tested, 0.27% active; AID 2563;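 active = fall in fluorescence gain of 50% or more versus controls, with final raw signal at or below 3038400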;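 also: plate controls were neutral control wells for no effect and wells lacking membranes for full effect; tested at 10 µM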
Target sequence (Q03530 whole entry, looked up): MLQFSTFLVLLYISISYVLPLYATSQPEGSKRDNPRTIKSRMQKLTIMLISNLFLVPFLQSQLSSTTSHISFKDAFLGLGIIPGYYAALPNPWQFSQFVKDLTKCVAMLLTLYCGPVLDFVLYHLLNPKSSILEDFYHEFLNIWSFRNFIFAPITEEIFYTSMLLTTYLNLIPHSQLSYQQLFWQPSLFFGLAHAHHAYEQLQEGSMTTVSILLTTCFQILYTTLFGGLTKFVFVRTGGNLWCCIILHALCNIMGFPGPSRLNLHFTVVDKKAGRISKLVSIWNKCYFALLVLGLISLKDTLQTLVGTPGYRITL
UUG fidelity: alters start codon recognition fidelity in yeast; S. cerevisiae UUG-firefly luciferase reporter, luminescence/redox ratio; activity score, % at 18.7 µM; 350,000 tested, 0.13% active; AID 602363;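 active = replicate mean at a twofold rise or more, about +100% in these data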;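 also: firefly luciferase made from a UUG start codon reports start codon fidelity; reporter light over untreated wells divided by growth signal over untreated wells; some hits fall short of that in this replicate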
HIV Env fusion: inhibitors of HIV Env-mediated cell fusion. HeLa-JRFL Env/CEM21 cell fusion, luciferase. inhibition, % at 12.3 µM. 360,000 tested, 1.1% active. AID 651610;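 active = mean replicate inhibition score of at least 50 and every replicate individually at or above 50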;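 also: 0% = plate neutral controls and 100% = maraviroc near 300 nM; one replicate is shown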
CSC inhib: blocks cancer stem cells | 300,000 tested, 1.1% active | cancer stem cell-like cells viability, luminescence | inhibition, % at 7.5 µM | AID 2717;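 active = mean at 75% or more and at least half the replicates too; tested in HMLE shEcad cells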;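 also: 0% = median of negative and 100% = median of positive control wells; the first replicate is given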
PABP polyA inh: blocks human PABP binding to poly(A) RNA; 290,000 tested, 1% active; fluorescence polarization; inhibition, % at 35 µM; P11940; AID 2014;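 active = 50% or more with normal probe brightness, or confirmed in later tests; about a fifth of its hits are not listed in these tables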;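 also: calls also rest on retests at 20 µM and on dose response follow-up; controls were probe without protein and protein plus probe with vehicle; some compounds called inactive have numbers as strong as hits; many hits fall short of the cut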
Target sequence (P11940 whole entry, looked up): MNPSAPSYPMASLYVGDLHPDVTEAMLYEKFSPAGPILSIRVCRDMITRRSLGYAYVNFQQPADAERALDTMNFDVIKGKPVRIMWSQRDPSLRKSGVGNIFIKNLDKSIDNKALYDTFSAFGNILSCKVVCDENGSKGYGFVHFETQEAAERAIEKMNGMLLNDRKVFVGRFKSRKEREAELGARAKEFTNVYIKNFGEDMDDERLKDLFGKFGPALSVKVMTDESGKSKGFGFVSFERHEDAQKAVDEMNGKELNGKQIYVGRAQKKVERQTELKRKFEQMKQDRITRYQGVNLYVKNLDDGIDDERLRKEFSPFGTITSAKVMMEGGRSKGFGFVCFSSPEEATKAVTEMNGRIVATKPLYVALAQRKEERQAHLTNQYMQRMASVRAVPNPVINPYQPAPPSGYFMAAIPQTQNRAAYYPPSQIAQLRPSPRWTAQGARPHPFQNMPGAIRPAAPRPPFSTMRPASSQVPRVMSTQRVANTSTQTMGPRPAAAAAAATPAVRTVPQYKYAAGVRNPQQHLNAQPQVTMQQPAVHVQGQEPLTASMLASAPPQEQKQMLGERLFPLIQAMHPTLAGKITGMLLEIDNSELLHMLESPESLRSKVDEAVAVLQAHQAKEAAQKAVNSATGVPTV
MT1-MMP act inh: blocks activation of human MT1-MMP; 360,000 tested, 0.061% active; P50281; HT1080 RFP-PRO-GFP cells, GFP/RFP ratio fluorescence, overnight; percent of plate control window, DMSO zero; AID 651647; GFP/RFP ratio change, % at 20 µM;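 active = GFP/RFP ratio change of at least 30% with cell ATP level not reduced by more than half and red fluorescence within 50% of control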; also: strong numbers were not always called active
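Compound: 20 µM single dose, 1% DMSO / System: HT1080 RFP-PRO-GFP cells / Controls: DMSO and RFP-L50D-GFP cell wells / Read-out basis: GFP/RFP fluorescence ratio / Schedule: overnight compound exposure at 37 °C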
MT1-MMP act inh RFP: also measured in MT1-MMP act inh; calls as there; RFP signal change, %; measured here: RFP expression control read;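 0 = vehicle wells; hits needed this value within 50% of zero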
* hit, by the source's call; i = inactive; . = no result given.

SMILES	eIF4H inh	Rce1 inh	UUG fidelity	HIV Env fusion	CSC inhib	PABP polyA inh	MT1-MMP act inh	MT1-MMP act inh RFP
NC(=S)N/N=C1/CCSc2ccc3ccccc3c21	8	i	.	-28	-14	3	-10	-9
C=CCc1ccccc1OCC(=O)N/N=C/c1ccc(OC(C)=O)cc1OC(C)=O	5	i	-6	15	77*	1	0	-2
COC(=O)C1=C(C)Nc2ncnn2C1c1ccc(OC(=O)c2ccccc2)cc1 (stereo not given)	-6	i	-15	.	-1	-9	6	-1
Nc1nc2cc(S(=O)(=O)N3CCOCC3)ccc2o1	.	.	-18	1	-14	.	-1	4
C/C(CC(=O)Nc1ccc2c(c1)OCCO2)=N\NC(=O)COc1ccc(Cl)c(C)c1	-2	i	17	-4	-10	-14	4	3
O=C(C1CCCO1)N1CCN(C(=S)Nc2ccccc2Cl)CC1 (stereo not given)	-10	i	-1	4	11	-17	1	-4
O=C1/C(=C/c2ccco2)CCC1C1CCCC1 (stereo not given)	-8	i	.	-9	-12	10	4	4
O=C(/C=C/c1ccccc1)CC(O)(c1ccccc1)C(F)(F)C(F)F (stereo not given)	11	i	1	.	.	3	-21	-29
COc1cc2cc(C(=O)N3CCC(Cc4ccccc4)CC3)[nH]c2cc1OC	-2	i	-17	3	-6	-17	2	-2
Cc1ccc(C(=O)NC(=S)c2c(C)cc3ccccn23)cc1	.	.	-15	7	.	.	-6	6
O=C1c2cccc3cccc(c23)C(=O)N1OS(=O)(=O)c1ccc(Cl)cc1	2	i	.	-22	-4	-3	-4	0
Cc1sc2nc(COC(=O)c3c(F)cccc3F)[nH]c(=O)c2c1C	0	i	-10	-11	-19	-7	2	0
NS(=O)(=O)c1cc2c(cc1Cl)NC(C(Cl)Cl)NS2(=O)=O (stereo not given)	-9	i	-10	.	-11	-10	1	5
CC(C)CN(C(=O)CSc1nnc2c(Cl)cc(C(F)(F)F)cn12)C1CCS(=O)(=O)C1 (stereo not given)	-10	i	8	-42	-5	-7	4	5
Nc1nnc(CSCc2ccccc2)s1	-5	i	16	.	-2	-13	2	4
O=C(Nc1ccc(Cl)cc1)Nc1nnc(CSCc2ccc(Cl)cc2)s1	-6	i	.	71*	59	3	-15	-29
Cc1nc(NCCN2CCOCC2)c2oc3ccccc3c2n1	-1	i	.	.	-1	12	0	6
O=C(CSc1nnc(-c2cccnc2)s1)Nc1ccnc2ccccc12	-11	i	.	55*	13	4	-4	-23
COc1cc(/C=N/NC(=O)CNC(=O)c2ccco2)ccc1O	-6	i	-9	0	-4	16	-2	-3
Cc1cccc(OCCc2nnc(N)s2)c1C	-5	i	-6	-2	-19	-2	3	1

Some values from the entries so far:
COc1cc2cc(C(=O)N3CCC(Cc4ccccc4)CC3)[nH]c2cc1OC in CSC inhib is entered as -6
Cc1nc(NCCN2CCOCC2)c2oc3ccccc3c2n1 in eIF4H inh is entered as -1
COc1cc(/C=N/NC(=O)CNC(=O)c2ccco2)ccc1O in HIV Env fusion is entered as 0
Cc1cccc(OCCc2nnc(N)s2)c1C in eIF4H inh is entered as -5
NC(=S)N/N=C1/CCSc2ccc3ccccc3c21 in PABP polyA inh is entered as 3
O=C(/C=C/c1ccccc1)CC(O)(c1ccccc1)C(F)(F)C(F)F (stereo not given) in UUG fidelity is entered as 1

New compounds follow.
SMILES	eIF4H inh	Rce1 inh	UUG fidelity	HIV Env fusion	CSC inhib	PABP polyA inh	MT1-MMP act inh	MT1-MMP act inh RFP
Cc1ccc(-n2nc3cc(Cl)c(NC(=O)c4ccco4)cc3n2)cc1	2	i	-12	-44	-2	4	0	2
Cc1nc2ccc(S(=O)(=O)N3CCCCC3)cc2s1	-2	i	-3	-5	.	-10	-2	-4
O=C(N/N=C/c1cccs1)c1cccc(NC(=O)c2ccccc2Cl)c1	4	i	.	-6	9	6	-1	-1
C/C(=N/NC(=O)c1ccccn1)c1ccncc1	-1	i	-30	-14	14	-2	1	5
CCC(C)NC(=O)CN(c1ccc(OC)cc1)S(=O)(=O)c1ccccc1 (stereo not given)	-6	i	.	-5	-7	-3	-5	-2
C/C(=N\NC(=O)c1ccccc1Br)c1ccc(N2CCOCC2)cc1	-2	i	.	-4	-11	-8	11	9
Nc1nc2cc(Br)ccc2o1	.	.	0	11	.	.	-1	-1
COc1ccc2oc(C(=O)OCC(=O)N(CC(C)C)c3c(N)n(Cc4ccccc4)c(=O)[nH]c3=O)c(C)c2c1	.	i	-15	-9	-14	.	-13	-9
S=C(Nc1ccccc1)N1CCCN1c1ccccc1	-5	i	-1	1	3	3	-1	0
Cc1ccc(C(=O)Nc2ccc(SC(F)F)cc2)s1	8	i	-20	-216	9	-6	5	-9
S=C(c1ccc2c(c1)OCO2)N1CCCCC1	-2	i	-21	.	.	12	3	0
CCNC(=S)NNc1nc(N2CCOCC2)nc(N2CCOCC2)n1	-6	i	.	-26	6	4	3	4
COc1ccc(C(=O)NCc2nnc(SCC(=O)N3CCC(C)CC3)o2)cc1OC	-2	i	1	.	5	-3	.	.
Cc1cc(C)c2c(c1)NC(=O)C2(O)CC(=O)c1cccs1 (stereo not given)	5	.	-27	-367	9	-8	2	4
c1ccc(Sc2ncccn2)nc1	1	i	.	-5	-3	2	-2	4
CCN1CCCC1CNC(=O)c1cn(CC)c2ccc(S(=O)(=O)N3CCCCCC3)cc2c1=O (stereo not given)	-9	i	.	.	-3	0	.	.
COc1ccc(CCNc2ccc([N+](=O)[O-])cn2)cc1	2	i	-1	-58	-5	6	1	-5
Cn1c(=O)n(C)c2cc(/C=N/NC(=O)c3ccc(Cl)cc3)ccc21	-7	i	-24	-10	-15	-9	6	4
CCOC(=O)N1CCN(C(=O)/C(=C/c2ccccc2OC)NC(=O)c2ccccc2)CC1	-8	i	-14	.	-7	5	2	3
CCN(CC(=O)Nc1c(F)cccc1F)C(=O)CCN1C(=O)C2CC=CCC2C1=O (stereo not given)	.	i	-14	-8	-19	.	2	1
CCNc1nc(N)c(C(=O)c2ccc(Cl)s2)s1	-11	i	-13	i	-15	7	3	8
Nc1ccc(Oc2ccc(Br)cc2)cc1	3	i	-29	36	30	-2	-12	-15
CN(c1cc2c(c3c1ccn3C)C1CCC2O1)C1CCCCC1 (stereo not given)	.	.	-10	20	.	.	3	3
COc1ccc(N2CC(C(=O)NCCC3=CCCCC3)CC2=O)c(OC)c1 (stereo not given)	.	i	-6	-11	-5	.	3	2
O=C(C1CCCN(c2ncnc3c2nc2n3CCCCC2)C1)N1CCN(c2ccccc2)CC1 (stereo not given)	-17	i	9	1	3	-5	2	-8
CCOC(=O)c1c(NC(=O)COC(=O)c2ncc(Cl)c(Cl)c2Cl)sc(C(=O)N(C)C)c1C	.	i	5	.	9	.	1	3
CCCc1cc(C(=O)Nc2ccc(F)c(Cl)c2)no1	-18	i	-19	-9	11	5	1	-2
CCOc1cccc(-c2cc(-c3n[nH]c(=S)n3CC)c3ccccc3n2)c1	5	i	-17	.	-10	11	-4	-12
Cc1nc2ccccc2n1Cc1n[nH]c(=S)n1-c1ccc(Cl)cc1	0	i	-16	-5	1	9	10	1
COc1ccc(CCNC(=O)CSc2nc3scc(-c4ccccc4)c3c(=O)[nH]2)cc1	.	.	-7	6	3	.	-3	-12
Cc1ccc(C)c(-n2sc3ccc(F)cc3c2=O)c1	.	.	-35	0	42	.	7	-17
COc1ccc(NC(=O)COC(=O)c2ccncc2)c(OC)c1	0	i	.	5	10	-15	2	7
COc1ccccc1CNS(=O)(=O)c1c(C)cc(C)cc1C	.	.	1	5	.	.	-2	-1
O=S(=O)(O)c1nnc2sc3ccccc3n12	-6	i	5	.	.	12	-2	1
Clc1ccc(CN(Cc2ccc(Cl)cc2)c2nn[nH]n2)cc1	-5	i	.	11	36	-9	0	2
COc1ccc(C(=O)Nc2nc3ccccc3[nH]2)cc1S(=O)(=O)N1CCOCC1	-6	.	-9	19	-2	0	3	1
Cc1cc(C(=O)Nc2ccccc2C#N)n(-c2ccccc2)n1	-3	i	-19	5	.	1	2	6
C=CCOc1ccc(/C=C/C(C)=N\O)cc1	-4	i	-18	-406	11	-2	-6	-9
O=C(NCCc1ccc(Cl)cc1)C1CCCN(c2ncnc3c2nc2n3CCCCC2)C1 (stereo not given)	4	i	-23	12	-8	5	0	-3
O=C(CSCc1c(Cl)cccc1Cl)NCc1cccnc1	14	.	-15	.	-9	1	0	1

Compound profiles (already shown):
`Cc1cc(C(=O)Nc2ccccc2C#N)n(-c2ccccc2)n1` in the list: eIF4H inh = -3; Rce1 inh = i; UUG fidelity = -19; HIV Env fusion = 5; CSC inhib = .; PABP polyA inh = 1; MT1-MMP act inh = 2; MT1-MMP act inh RFP = 6
`C=CCOc1ccc(/C=C/C(C)=N\O)cc1` in the list: eIF4H inh = -4; Rce1 inh = i; UUG fidelity = -18; HIV Env fusion = -406; CSC inhib = 11; PABP polyA inh = -2; MT1-MMP act inh = -6; MT1-MMP act inh RFP = -9

Continuation:
SMILES	eIF4H inh	Rce1 inh	UUG fidelity	HIV Env fusion	CSC inhib	PABP polyA inh	MT1-MMP act inh	MT1-MMP act inh RFP
Cc1nc2cc3c(=O)n(C)cnc3cc2n1Cc1ccccc1	.	.	6	-15	.	.	10	6
Cc1ccc(NC2=CC(=O)C(=O)c3ccccc32)cc1	6	i	-37	60	-8	9	11	6
CCOC(=O)C1C(=O)N(C(=O)c2cncc(Br)c2)CC1c1ccccc1 (stereo not given)	1	i	-15	.	-3	5	3	0
O=C(NCCS(=O)(=O)N1CCN(c2ccc(F)cc2)CC1)C1CC(=O)N(c2ccccc2)C1 (stereo not given)	-8	i	-6	-2	-14	2	1	-2
CC(C)OC(=O)Cn1nnc2c(cnn2-c2ccccc2)c1=O	-1	i	-18	.	-1	-16	7	1
O=C(C1=C[C@@H](c2ccc(Br)cc2)C[C@@H](OCc2ccc(CO)cc2)O1)N1CCOCC1	-1	i	-18	-21	2	1	2	0
O=C(c1nc2ccccn2c1CN1CCCC(c2nc3ccccc3o2)C1)N1CCCC1 (stereo not given)	-4	.	.	5	7	-7	1	3
CCN(CC)c1ccc(C=Nc2cc(C)ccc2C)c(O)c1	7	i	-1	-8	8	2	3	4
CCC(SC1=NCCS1)C(=O)Nc1nnc(-c2ccccc2OC)s1 (stereo not given)	-12	i	-12	-53	22	1	4	-4
CCOC(=O)c1c(N2CCCCC2)c2ccccc2[nH]c1=O	-3	i	.	.	-5	4	1	3
CCOc1cccc(=O)c2c(C)n(Cc3ccco3)c(C)c12	95*	i	-15	-19	-5	89*	-25	8
COc1ccc(/C=N/NC(=O)CC#N)cc1Oc1nc(Cl)ncc1F	-6	i	-3	6	1	-3	-2	2
CCC(CC)NC(=O)c1cccc(Br)c1	-8	i	-22	2	-11	2	2	0

This is a subset; the hit share may differ from the screen's.
